# KCNQ2 block: KCNQ2 channel blockers in CHO-K1 cells – cell-based, FluxOR thallium flux, B-score, primary screen (AID 2156) | O88943 | 20 min; hits give low values; only compounds with negative scores are shown here; some inactives read as strong as hits | B-score at 10 µM | 310,000 tested, 1.1% active;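 active = fluorescence ratio B-score at most minus 3 library SDs, with starting brightness B-score within 2 library SDs, cut at about -5.5 in these data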
# Target sequence (O88943 whole entry, looked up): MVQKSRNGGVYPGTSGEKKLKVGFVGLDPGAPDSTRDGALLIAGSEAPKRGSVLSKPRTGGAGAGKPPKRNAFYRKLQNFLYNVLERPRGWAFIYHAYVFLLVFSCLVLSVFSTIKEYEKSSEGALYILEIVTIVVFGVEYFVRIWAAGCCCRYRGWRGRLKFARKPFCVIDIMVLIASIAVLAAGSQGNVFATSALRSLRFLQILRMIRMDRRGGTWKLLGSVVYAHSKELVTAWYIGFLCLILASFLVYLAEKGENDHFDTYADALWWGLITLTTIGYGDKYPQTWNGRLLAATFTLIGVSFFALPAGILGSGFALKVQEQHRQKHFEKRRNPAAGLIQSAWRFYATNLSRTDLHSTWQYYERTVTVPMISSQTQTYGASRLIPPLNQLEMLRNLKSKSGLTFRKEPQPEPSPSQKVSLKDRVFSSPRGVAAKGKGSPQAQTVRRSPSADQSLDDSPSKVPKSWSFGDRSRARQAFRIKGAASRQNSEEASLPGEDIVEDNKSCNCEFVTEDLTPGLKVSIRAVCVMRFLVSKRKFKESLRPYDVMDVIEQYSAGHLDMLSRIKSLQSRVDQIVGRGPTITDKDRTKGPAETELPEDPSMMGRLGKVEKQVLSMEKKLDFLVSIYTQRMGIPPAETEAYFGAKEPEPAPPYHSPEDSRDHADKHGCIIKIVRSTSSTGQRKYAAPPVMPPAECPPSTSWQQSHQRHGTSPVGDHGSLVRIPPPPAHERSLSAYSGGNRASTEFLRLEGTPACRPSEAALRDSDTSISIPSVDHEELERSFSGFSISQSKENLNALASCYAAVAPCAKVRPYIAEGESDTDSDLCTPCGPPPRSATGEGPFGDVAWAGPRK
# KCNQ2 block baseline: second read-out of KCNQ2 block, no call of its own (marks repeat the call); B-score; measured here: initial fluorescence intensity artifact check;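 brightness before thallium and not channel activity; 0 = typical well and far values either way flag optical interference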
# * marks the source's active call; other numbers are inactive results; i = inactive. Not all compounds are listed; the hit share may differ from the screen's.
KCNQ2 block,KCNQ2 block baseline,canonical_smiles
i,-1.3,Cc1ccc(S(=O)(=O)N(C(=O)c2ccncc2)c2ccc(OC(=O)c3ccncc3)c3ccccc23)cc1
i,-0.71,Cc1ccc(OCC(=O)N/N=C2/SCC(=O)N2Cc2ccco2)cc1
-6.8*,-0.03*,COc1ccccc1/C=C(/CC(=O)NCc1ccc(F)cc1)c1nc2ccccc2s1
i,-0.14,O=C(/C=C/c1cccs1)NC(=S)Nc1ccc(C(=O)O)cc1
i,-0.49,CCc1ccc(NC(=O)C2CCCN2S(=O)(=O)c2ccc3c(c2)C(C)(C)C(=O)N3C)cc1 (stereo not drawn)
i,-1.9,COCC(=O)Nc1ccccc1Br
i,-1.1,Cc1ccc(N(Cc2ccccc2)C(=O)c2ccc(Cl)c(S(=O)(=O)N3CCOCC3)c2)cc1
i,-0.05,CC(=O)Nc1ccc(S(=O)(=O)N2CCN(c3cnn(C)c(=O)c3Cl)CC2)cc1
i,-0.67,O=C1N/C(=N\N=C\c2cccs2)SC1Cc1cccc(Cl)c1Cl (stereo not drawn)
i,-0.21,COc1ccc(OC)c(CN2CCN(S(=O)(=O)c3ccc(NC(C)=O)cc3)CC2)c1
i,1.1,COc1ccc(NC(=S)N(Cc2cccc(Br)c2)CC2CCC(C(=O)O)CC2)cc1 (stereo not drawn)
i,-0.29,COc1ccc(-c2nc3ccccc3c(=O)n2NC(=S)N(C)C)cc1
i,-1.4,CCOc1ccccc1N1CCN(C(=O)CNC(=O)c2sc3ccccc3c2Cl)CC1
i,-1.8,OCCC1CN(Cc2ccc(F)cc2)CCN1CCCc1ccccc1 (stereo not drawn)
i,0.03,Cc1cccc(C(=O)NCCN2CCCC2)c1
i,-1.2,CCOC(=O)CCNC(=O)Nc1ccc2nc(C)n(Cc3ccccc3Cl)c(=O)c2c1
i,-0.5,CN(C)c1ccc(C2C3=C(CCCC3=O)OC3=C2C(=O)CCC3)cc1
i,0.62,O=C(c1ccco1)N1CCN(C2CC(=O)N(c3ccc4c(c3)OCO4)C2=O)CC1 (stereo not drawn)
i,1,O=C(CCc1c[nH]c2ccccc12)N1CCN(c2ccc(O)cc2)CC1
i,-0.87,Cc1cnc(C(=O)OCC(=O)Nc2ccc(Cl)cn2)cn1
i,-0.38,CC(NC(=O)CCc1nnc(-c2ccc(-c3ccccc3)cc2)o1)c1nc2ccccc2[nH]1 (stereo not drawn)
i,0.57,O=C(CN1C(=O)c2cccc3cccc1c23)Nc1ccc(S(=O)(=O)N2CCOCC2)cc1
i,1.3,Cc1ccc(SC[C@H](c2ccccc2)N2CCN(CC(C)C)CCC2=O)cc1
i,0.02,CC1(C)CC(=O)C(C#N)=C(NCCCO)C1
i,0.54,COc1ccc(CCn2cc(C#N)c(=O)[nH]c2=O)cc1OC

# Full records, looked up by structure. Screens in order: KCNQ2 block | KCNQ2 block baseline
# Listed for COc1ccc(NC(=S)N(Cc2cccc(Br)c2)CC2CCC(C(=O)O)CC2)cc1 (stereo not drawn) = i | 1.1
# Listed for O=C(CCc1c[nH]c2ccccc12)N1CCN(c2ccc(O)cc2)CC1 = i | 1
# Listed for Cc1ccc(N(Cc2ccccc2)C(=O)c2ccc(Cl)c(S(=O)(=O)N3CCOCC3)c2)cc1 = i | -1.1
# Listed for O=C1N/C(=N\N=C\c2cccs2)SC1Cc1cccc(Cl)c1Cl (stereo not drawn) = i | -0.67
# Listed for Cc1ccc(S(=O)(=O)N(C(=O)c2ccncc2)c2ccc(OC(=O)c3ccncc3)c3ccccc23)cc1 = i | -1.3

# (listing goes on)
KCNQ2 block,KCNQ2 block baseline,canonical_smiles
i,0.42,N#CCCn1cc(C(=O)Nc2ccc(C(=O)O)cc2)c(-c2ccc([N+](=O)[O-])cc2)n1
i,0.01,NC(=O)NC(=O)Nc1ccccc1Cl
i,0.14,COc1ccc(N(C)S(=O)(=O)c2ccc(Cl)c(C(=O)NCCc3ccc(Cl)cc3)c2)cc1
i,0.03,Cc1cc(F)ccc1S(=O)(=O)N1CCCCC1CCNC(=O)C(=O)NCc1ccccn1 (stereo not drawn)
i,1,O=C(CC1C(=O)NCCN1Cc1ccccc1C(F)(F)F)NC1CCCCCC1 (stereo not drawn)
i,0.22,Cc1ccc2c(Cl)cc(Cl)c(OCC(=O)Nc3cc(S(=O)(=O)N(C)C)ccc3C)c2n1
i,0.94,N#Cc1nc(-c2cccs2)oc1NCC1CCCO1 (stereo not drawn)
i,-0.15,COc1ccc(NC(=S)N(CCCN2CCOCC2)Cc2ccco2)cc1
i,-0.08,Cc1ccnn1CCC(=O)N1CCCC(Nc2ccc(F)c(F)c2)C1 (stereo not drawn)
i,0.05,COc1ccc(-c2noc(-c3ccccc3C(=O)NCC3CCCO3)n2)cc1 (stereo not drawn)
i,-0.19,CCOC(=O)N1CCC(n2c(SCC(=O)Nc3ccccc3OC)nc3ccccc3c2=O)CC1
i,0.92,CCn1c(=O)c2sccc2n(Cc2ccccc2)c1=O
i,-0.21,CN(C)C(=O)c1ccc(-c2nnc(NCc3ccccc3)c3ccccc23)cc1
i,-2,Fc1ccccc1OCCSc1nc2ccccc2o1
i,-1.1,CCn1ncc(CN2CCC(Oc3ccc(C(=O)N4CCCC4)cc3)CC2)c1C
i,2.2,Cc1cccc(NC(=O)CCN2C(=O)c3cccc([N+](=O)[O-])c3C2=O)c1
i,-0.39,COc1ccc(N(CC(=O)N2CCCCCC2)S(=O)(=O)c2ccc(OC)c(OC)c2)cc1
i,1.1,ClCC1=Nc2ccccc2Cc2ccccc21
i,-0.3,CCCCOc1ccc(S(=O)(=O)NNC(=O)C2Cc3c(ccc4ccccc34)O2)cc1 (stereo not drawn)
i,-0.15,Nc1ccc(S(=O)(=O)O)cn1
i,-0.44,CCOc1ccc(-n2c(SCC(N)=O)nc3c([nH]c4ccccc43)c2=O)cc1
i,-0.78,CCCc1ccc(C(=O)NNC(=O)c2ccc(Br)cc2)cc1
i,0.04,O=C(CCC1CCCC1)NCCS(=O)(=O)N1CCN(c2ccccc2)CC1
i,0.51,O=C(CCSCc1ccccc1Cl)NC1CCCC1
i,0.11,Cc1c(C(=O)OCc2nc3scc(-c4ccccc4)c3c(=O)[nH]2)cccc1[N+](=O)[O-]

# Further records:
KCNQ2 block,KCNQ2 block baseline,canonical_smiles
i,0.39,O=C(CCCN1C(=O)c2ccccc2C1=O)NCc1cccnc1
i,3,Cc1ccc2nc(N3CCN(C)CC3)c(C=O)c(=O)n2c1
i,-0.42,COc1cc(C2CC(=O)NC(SCC(=O)Nc3ccccc3C)=C2C#N)ccc1O (stereo not drawn)
i,2,COc1cc(/C=N/NC(=O)C(=O)N2CCCC2)ccc1O
i,-1,CCn1c(SCC(=O)Nc2ccc(NC(=O)c3ccco3)c(OC)c2)nc2ccccc2c1=O
i,-0.24,Cc1ccc2sc(NC(=O)CSc3nc(C)cc(C)c3C#N)nc2c1
i,1.8,CCc1ccccc1NC(=O)CN1CCN(CC(=O)Nc2cc(C)ccc2OC)CC1
i,-0.39,COc1ccc(NCc2nn(CC(=O)c3ccc(Br)cc3)c3[n+]2CCCCC3)cc1
i,-0.21,CCOC(=O)c1cc2occc2n1CC(=O)Nc1ccc(OC)cc1OC
i,0.19,Cc1cc(C)cc(Cn2ncc(Cl)c(Cl)c2=O)c1
i,1,CN1C(=O)SC(Nc2ccccc2)C1=O (stereo not drawn)
i,-1.4,COCCCN1C(=O)C(O)=C(C(C)=O)C1c1cccc(F)c1 (stereo not drawn)
i,-0.27,Cc1ccc(C2=Nc3ccccc3N=C(c3ccco3)C2)c(O)c1
i,0.18,CCC(=O)Nc1cc(C)c(OC)c(C)c1
i,-1.6,FC(F)(F)c1cc(-c2ccco2)nc(NCc2ccccc2)n1
i,0.18,COc1cccc(/C=C2\SC(=S)N(CCC(=O)NNC(=O)c3ccccc3OC)C2=O)c1
i,0.7,COc1ccc(Cl)cc1N(C(C)C(=O)O)S(C)(=O)=O (stereo not drawn)
i,-1.5,CC(=O)c1cccc(NC(=O)N2CCCC2C(=O)NC2CCCC2)c1 (stereo not drawn)
i,0.37,O=C(CN1CCCC1)NCC12CC3CC(CC(C3)C1)C2
i,0.47,CC(=O)Nc1cccc(C(=O)OC(C(=O)c2ccc(C)c(C)c2)c2ccccc2)c1 (stereo not drawn)
i,-1.4,CC(=O)Nc1ccc(-c2cn3ccsc3n2)cc1
i,-1.4,CC(=O)C(=Nc1ccccc1Cl)NNc1ccc(Cl)cc1
i,-0.1,Oc1ccc(-c2csc(-c3cccnc3)n2)c(O)c1
i,-0.07,CC(C)Cn1cnc2c1c(=O)n(CC(=O)O)c(=O)n2Cc1ccccc1
i,1.1,Cc1cccc(Cl)c1NNC(=O)Nc1c([N+](=O)[O-])c(C)nn1C

# Two entries from above, with bars between the fields.
SMILES | KCNQ2 block | KCNQ2 block baseline
CCn1c(SCC(=O)Nc2ccc(NC(=O)c3ccco3)c(OC)c2)nc2ccccc2c1=O | i | -1
Cc1ccc2sc(NC(=O)CSc3nc(C)cc(C)c3C#N)nc2c1 | i | -0.24

# Following part.
KCNQ2 block,KCNQ2 block baseline,canonical_smiles
i,0.65,Cc1ccc(C(=O)CCC(=O)N(C)CC(=O)Nc2c(Cl)cccc2Cl)cc1
i,-1.2,Cc1ccc(S(=O)(=O)Nc2ccc3c(c2)nc(CCN2CCCCC2)n3C)cc1
i,-0.51,Cc1noc(C)c1S(=O)(=O)Nc1ccc(C(=O)N2CCc3ccccc3C2)cc1
i,0.67,COc1ccccc1-n1c(SCC(=O)Nc2cccc3ccccc23)nc(O)cc1=O
i,1.7,CCOc1cc(Br)c(/C=C2/C(=O)N(C)C(=S)N2CC(=O)OC)cc1OC
i,2.9,Cc1ccc(C2=NNC(C(O)C(O)C(O)C(O)CO)S2)cc1 (stereo not drawn)
i,0.49,c1ccc(OCc2nnc3sc(-c4cccs4)nn23)cc1
i,-0.75,S=c1nc(C2CCCCC2)[nH]c2ccccc12
i,-0.14,COc1ccc(C(OC(=O)c2c(C)noc2C)C(=O)NC2CCCC2)cc1 (stereo not drawn)
i,-2.1,CCO[C@@H]1OC(C(=O)N2CCN(Cc3ccc4c(c3)OCO4)CC2)=C[C@H](c2ccc3c(c2)OCO3)[C@H]1CCCO
i,-0.44,O=C(c1ccncc1)N1N=C(C2CCCCC2)CC1(O)C(F)(F)F (stereo not drawn)
i,-0.47,COc1ccc(CNC(=O)C(c2ccc(C)cc2)N(Cc2cccs2)C(=O)c2ccc3c(c2)OCCO3)cc1 (stereo not drawn)
i,-0.65,Cc1ccc(C)c(S(=O)(=O)Nc2ccc3scnc3c2)c1
i,-0.28,Cc1cc(OC(F)F)ccc1NC(=O)Nc1ccc2c(c1)OCO2
i,0.1,O=C(CCCC(=O)N(CC(=O)NC1CCCC1)c1ccc(F)c(Cl)c1)Nc1ccccn1
i,-0.01,CSc1nsc(SCC(=O)N2CCc3ccccc32)n1
i,1.7,CCc1nnc(NC(=O)CCC(=O)Nc2ccc(OC)cc2OC)s1
i,-0.54,Brc1cc(-c2ccccc2)nc(-c2ccccc2)n1
i,-0.08,Cc1ccc(C(=O)N/N=C/c2ccc(-c3cccc(C(F)(F)F)c3)o2)cn1
i,1.4,O=C(Cn1ccc(C(F)(F)F)n1)NNC(=O)c1cccnc1
i,1.3,COc1ccc(-n2c(-c3cccc(C)c3[N+](=O)[O-])n[nH]c2=S)cc1
i,0.2,CC(=O)N1[C@H](C)C=C[C@]1(Cc1ccccc1)C(=O)O
i,0.94,CC1Cc2cc(/C(O)=C3\C(=O)C(=O)N(Cc4ccncc4)C3c3ccccc3F)ccc2O1 (stereo not drawn)
i,-1.5,COc1cccc(CC(=O)N2CCC(n3nccc3NC(=O)C3CCOC3)CC2)c1 (stereo not drawn)
i,1.9,CC(=O)c1ccc(NC(=O)CC23CC4CC(C2)CC(n2nnc(C)n2)(C4)C3)cc1

# Next section (2 carried over from the part before).
KCNQ2 block,KCNQ2 block baseline,canonical_smiles
i,-1.5,COc1cccc(CC(=O)N2CCC(n3nccc3NC(=O)C3CCOC3)CC2)c1 (stereo not drawn)
i,1.9,CC(=O)c1ccc(NC(=O)CC23CC4CC(C2)CC(n2nnc(C)n2)(C4)C3)cc1
i,1,Cc1ccc(N(CC(=O)Nc2cc(C)ccc2C)S(C)(=O)=O)cc1
i,-0.53,COc1ccc(C(=O)N/C(=C\c2cn(C)c3ccccc23)C(=O)NCCCN2CCOCC2)cc1OC
i,0.7,C/C(=N\OC(=O)c1cccc(C(F)(F)F)c1)c1sc(-c2ccccc2)nc1C
i,0.15,Cc1ccc(S(=O)(=O)NCC(=O)OCC(=O)NC(=O)NC2CCCC2)cc1
i,0.01,CCn1c(=O)c(-c2cc(=O)[nH][nH]2)c(O)c2ccccc21
i,-0.51,O=C(O)C1C2C=CC(O2)C1C(=O)NCCCn1ccnc1 (stereo not drawn)
i,-2.1,CCn1nnc(NC(=O)c2ccc(C(C)(C)C)cc2)n1
i,0.02,CC1=Nc2ccccc2/C1=C\c1nc(-c2ccc(F)cc2)oc1O
i,-0.14,Nc1nc(SCCO)[nH]c(=O)c1NC(=O)c1ccccc1F
i,-0.16,C/C(Cl)=C\Cn1c(=O)c2c(nc3n2CCS3)n(C)c1=O
i,1.2,CS(=O)(=O)N(CCc1ccccc1)CC(=O)NCc1ccncc1
i,1.2,CS(=O)(=O)N(CCc1ccccc1)CC(=O)Nc1ccc(Br)cc1F
i,0.2,CCc1ccc(NC(=O)Nc2cc(C(=O)O)ccc2N2CC3CC(C2)c2cccc(=O)n2C3)cc1 (stereo not drawn)
i,0.66,O=[N+]([O-])c1ccc(-c2cnc3ccccc3n2)cc1
i,0.34,C/C(CC(=O)Nc1ccccc1)=N\NC(=O)COc1ccc(C)cc1Br
i,1.1,CN(Cc1cnn(C)c1)Cc1nc(Cc2ccccc2Cl)no1
i,-0.92,COc1ccccc1NCCC(=O)OCC(=O)Nc1ccc(Cl)cn1
i,2.5,COC(=O)c1c(C)[nH]c(C(=O)/C=C/c2ccccc2F)c1C
i,-0.03,COc1ccc(Nc2nc(N)nc(CN(C)C3CCCCC3)n2)cc1
i,-0.21,CCn1nc(C)c(CNC(=O)c2cc(COc3ccc(F)cc3Cl)on2)c1C
i,-0.59,Cn1cnc(S(=O)(=O)Nc2cc(C(F)(F)F)ccc2N2CCOCC2)c1

# Bioassay records deposited in PubChem by Johns Hopkins Ion Channel Center.
